# CDC25B CDK2 inh – human CDC25B-CDK2/CyclinA binding inhibition; z-score (concentration not given with the values); AID 1259370; P30305+P24941; HTRF CDC25B-CDK2/CyclinA binding, anti-His/anti-Flag; active compounds read high; 94,000 tested, 0.72% active;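 note: score is relative to mean and SD of negative controls; strong numbers were not always called active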
# TAR Tat displ – HIV-1 TAR-Tat binding disruption; HIV-1 TAR RNA, Tat peptide displacement FRET; active compounds read high; z-score (concentration not given with the values); 100,000 tested, 0.6% active; AID 1259389;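 note: score is relative to mean and SD of negative controls; some compounds called inactive have numbers as strong as hits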
# An asterisk follows results filed as active; . = no result given.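 Rule for the calls: active = z-score from 3 up in half or more of its runs; inactive = the rest.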
SMILES,CDC25B CDK2 inh,TAR Tat displ
Cc1cc2c3c([nH]c2cc1S(=O)(=O)N(Cc1ccco1)C1CCCCC1)CCCC3=O,.,-7.6
O=C(Oc1ccccc1NC1=NS(=O)(=O)c2ccccc21)c1ccccc1Br,0.42,.
CCOc1cccc2c1OC(c1cccc(F)c1)N1N=C(c3ccco3)CC21 (configuration not stated),-0.56,.
Cn1nnnc1SCCNCc1ccc(-c2ccccc2F)o1,-0.69,1.5
CC1=C(C)S(=O)(=O)CCS1(=O)=O,-0.81,.
CC(C)c1onc(C(=O)Nc2ccc(F)c(Cl)c2)c1[N+](=O)[O-],-0.96,-0.1
Cc1cc(C)nc(Nc2nc3ccccc3c(=O)[nH]2)n1,-0.23,.
CCN(c1ccccc1)c1nnc(NC(=O)Nc2ccccc2)s1,1.4,2.4
CCc1nnc2sc(COc3ccc(C(C)(C)C)cc3)nn12,-0.74,0.17
O=C(c1cc(S(=O)(=O)N2CCCCC2)c(Cl)cc1N1CCOCC1)N1CCOCC1,-0.99,0.43
CS(=O)(=O)OCC12CC3CC(CC(C3)C1)C2,-1.5,.
c1nc2nc3c(c(Nc4ccc5c(c4)OCCO5)n2n1)CCC3,.,1.2
O=S(=O)(c1ccc(Cl)cc1)N1CCCN(S(=O)(=O)c2ccc(Cl)cc2)CC1,-0.57,.
O=C1c2cccnc2C(=O)N1Cc1ccc(S(=O)(=O)N2CCOc3ccc(Cl)cc32)cc1,.,0.45
Cc1scc(CCNC(=O)NC2CCCCC2)c1C,.,1.1
CN1C(=O)c2ccccc2Sc2cc(NC(=O)C3CCCO3)ccc21 (configuration not stated),.,2.5
COc1cc(Nc2ncc3c(n2)CCN(CC(C)C)C3)cc(OC)c1,.,1.1
COCc1[nH]nc2c1C(c1ccccc1OC)C(C#N)=C(N)O2 (configuration not stated),-1.7,1.4
CC1=C(C(=O)OCCc2ccccc2)C(c2ccc(O)cc2)C2=C(CC(C)(C)CC2=O)N1 (configuration not stated),0.24,2.4
CSC(=NCCSC(C)(C)C)NS(=O)(=O)c1ccccc1,0.9,.
C=Cc1ccc(Cn2c(=O)c3cccnc3n(-c3ccccc3)c2=O)cc1,.,0.49
COC(=O)c1cc(=O)c2cc(C)ccc2[nH]1,-2.1,0.78
O=C(NCc1ccccn1)c1c(O)c2ccccc2[nH]c1=O,.,2.3
CCOC(=O)C1CCC(CNC(=O)N2CC(CC)Oc3ccc(Cl)cc32)CC1 (configuration not stated),.,0.94
O=C(Nc1nc(-c2cc([N+](=O)[O-])cs2)cs1)c1ccc2ncsc2c1,.,1.9

# 5 of the compounds above, bar-delimited:
Structure | CDC25B CDK2 inh | TAR Tat displ
O=C(Oc1ccccc1NC1=NS(=O)(=O)c2ccccc21)c1ccccc1Br | 0.42 | .
CCOc1cccc2c1OC(c1cccc(F)c1)N1N=C(c3ccco3)CC21 (configuration not stated) | -0.56 | .
Cn1nnnc1SCCNCc1ccc(-c2ccccc2F)o1 | -0.69 | 1.5
CC1=C(C)S(=O)(=O)CCS1(=O)=O | -0.81 | .
CC(C)c1onc(C(=O)Nc2ccc(F)c(Cl)c2)c1[N+](=O)[O-] | -0.96 | -0.1

# (list continues)
SMILES,CDC25B CDK2 inh,TAR Tat displ
CCN(CC)S(=O)(=O)c1c(C)nn(S(=O)(=O)c2ccc(C(C)C)cc2)c1C,.,0.76
COc1ccc(NC(=O)c2cnc3ccc(C)cn3c2=O)c(OC)c1,-1.9,-1.1
CC(C)Cc1nnc2sc(NC(=O)c3ccco3)nn12,-0.44,11*
CCC(=O)N1c2ccccc2NC2=C(C(=O)CC(C)(C)C2)C1c1ccc(Br)s1 (configuration not stated),-1.2,.
CCOC(=O)C1=C(C)Nc2nc(SC)nn2C1c1ccccc1C (configuration not stated),-0.41,1.4
CCCN(CCC)S(=O)(=O)c1ccc(CCN2C(=O)c3cccnc3C2=O)cc1,.,0.63
COC(=O)Cc1c(C)nc2nc(COc3ccccc3)[nH]n2c1=O,1,1.1
CCC(C)c1nn2c(=O)c(NC(=O)c3ccccc3)cnc2s1 (configuration not stated),-0.37,1.4
CC(=O)N1CCc2cc(S(=O)(=O)C(C)CC(=O)Nc3cccc(Br)c3)ccc21 (configuration not stated),.,1.4
CCCCOC(=O)Cc1c(C)[nH]c(=O)[nH]c1=O,-0.31,0.3
CC1CCC(Nc2c(-c3ccc4c(c3)OCC(=O)N4)c(=O)c2=O)CC1 (configuration not stated),.,-0.46
COc1cc2ncc(C(=O)c3ccccc3)c(N3CCOCC3)c2cc1OC,-0.97,2.8
CC(C)C(NC(=O)c1ccc(Cl)cc1Cl)C(C)C,-2.5,.
COc1cc(Nc2ncc3c(n2)CCN(Cc2ccc(Br)cc2)C3)cc(OC)c1,.,0.73
CCS(=O)(=O)N1CCCN(c2nc3cc(Cl)ccc3n3cccc23)CC1,-1.7,2.4
CC1CCc2c(sc3nc(CCC(=O)N4CCN(C5CCCCC5)CC4)[nH]c(=O)c23)C1 (configuration not stated),.,-0.2
Cc1ccccc1C1N(c2cccc(Cl)c2)C(=O)C2CCCN21 (configuration not stated),0.19,-1.4
O=C1CC(c2ccc3c(c2)OCO3)CC2=C1C(c1ccncc1)Nc1ccccc1N2 (configuration not stated),-3.8,.
CCC(C)(C)OC(=O)c1cc([N+](=O)[O-])cc2c1-c1ccc([N+](=O)[O-])cc1C2=O,-1.4,.
O/N=C1\CCCc2ccccc21,-2.1,.
N#Cc1c(C(F)(F)F)cc(-c2ccccc2)nc1SCC(N)=O,-2.5,-0.59
O=c1[nH]c2ccc(Nc3nc4ccccc4nc3NS(=O)(=O)c3ccc(Cl)cc3)cc2[nH]1,-1.4,-0.79
CCOc1ccc(/C(O)=C2\C(=O)C(=O)N(c3ccccn3)C2c2ccccc2F)c(C)c1 (configuration not stated),-4.4,-0.94
CN(C(=O)C1CCN(c2ncnc3c2nc2n3CCCCC2)CC1)c1cccc(Cl)c1,.,1.7
CCOC(=O)c1cn[nH]c1S(=O)(=O)NCc1cccs1,.,-0.26

# (cont.)
SMILES,CDC25B CDK2 inh,TAR Tat displ
CCOc1ccc(C)cc1S(=O)(=O)n1ccnc1C,-1.2,2
Cc1ccccc1CSc1nc2c(c(=O)[nH]1)C(c1ccccc1OC(C)C)CC(=O)N2 (configuration not stated),-1.2,0.8
CCCCCCNC(=O)C1CC(=O)N(CCc2c[nH]c3ccc(Cl)cc23)C1 (configuration not stated),-1.3,-1.6
O=C(NCc1csc(-c2ccccc2)n1)[C@H]1CSCN1C(=O)c1ccccc1,.,1.4
Oc1ccccc1-c1n[nH]c(-c2ccccc2O)n1,-0.01,.
Cc1ccc(NS(=O)(=O)c2cc(-c3cnc(C)o3)ccc2C)c(C)c1,.,0.95
CCCN1C(=O)C2(/C(=C(/O)c3ccccc3)C(=O)C(=O)N2CC2CCCO2)c2ccccc21 (configuration not stated),-1,-0.67
CC(C)(C)c1ccc(S(=O)(=O)N2CCc3cc4ccccc4nc32)cc1,-1.2,1.8
CCOC(=O)N1CCN(c2cc(N3CCC(C)CC3)c3c4c(onc24)-c2ccccc2C3=O)CC1,-1.9,-2.9
Cc1c(C#N)sc(-c2ncn[nH]2)c1C,-0.94,.
Cc1c(-c2ccn[nH]2)sc2nc(C(F)(F)F)nn12,-1.5,.
COC(=O)c1cc([N+](=O)[O-])ccc1SCc1ccc(Cl)cc1,0.54,.
CC1C2=C(CC(C)(C)CC2=O)OC1[N+](=O)[O-] (configuration not stated),-1.2,.
c1cc(-c2ccsc2)c2ccncc2c1,-1.4,1.6
COc1ccc(Br)c(C(=O)NCc2ccc(Cl)cc2)c1,-1.6,.
O=C(NC1CCN(c2ncccn2)CC1)C1CC1,-1.6,-0.04
O=C(Cn1cc(C(=O)C2CCCCC2)c2ccccc21)NCc1cccs1,0.2,-0.08
Cc1ccc2ncc(C(=O)Nc3ccccc3F)c(=O)n2c1,-0.24,0.24
Cc1ccc(OCc2nc3ccc(N)cc3[nH]2)cc1,7,1.5
O=C(CN(CC1CCCO1)C(=O)Cn1nnnc1-c1ccc(F)cc1)NC1CCCCC1 (configuration not stated),-1.5,-0.44
CC1=C(C(N)=O)C(c2ccncc2)n2nc(SCc3ccccc3)nc2N1 (configuration not stated),.,1.3
O=C1c2ccccc2C(=O)N1C(CO)C(O)c1ccccc1 (configuration not stated),0.45,.
O=C(CN1C(=O)c2ccccc2S1(=O)=O)Nc1ccccc1N1CCCC1,-1.6,-0.57
CCCN1CCN(c2nnc(-n3cccc3CNc3ccc(F)cc3)s2)CC1,.,0.62
O=C(O)C1CC(=O)N(c2cccc(O)c2)C1 (configuration not stated),1.7,-0.97

# Continued, overlapping the part above by three compounds.
SMILES,CDC25B CDK2 inh,TAR Tat displ
O=C(CN1C(=O)c2ccccc2S1(=O)=O)Nc1ccccc1N1CCCC1,-1.6,-0.57
CCCN1CCN(c2nnc(-n3cccc3CNc3ccc(F)cc3)s2)CC1,.,0.62
O=C(O)C1CC(=O)N(c2cccc(O)c2)C1 (configuration not stated),1.7,-0.97
CCCCOc1ccccc1C1C(C(=O)OC(C)C)=C(C)NC2=C1C(=O)CC(C)(C)C2 (configuration not stated),-1,3.1
Cc1ccnc(SCCn2c(N3CCN(c4ccccc4)CC3)nc3c2c(=O)[nH]c(=O)n3C)n1,0.51,.
Cc1ccc(-c2nc3ccccc3n2Cc2ccc(F)cc2)o1,.,-0.77
COc1ccc(N2CCC(CNC(=O)Nc3ccc(Cl)cc3)C2)cc1 (configuration not stated),.,-3.6
C=CCn1c2ccccc2c2nnc(SCC(=O)Nc3nc4ccc([N+](=O)[O-])cc4s3)nc21,-3.8,.
CCOC(=O)N1CCC(NC(=O)c2ccco2)CC1,-1.6,.
O=C(Nc1ccc2c(c1)OCCO2)C1=Cc2cc(Br)ccc2OC1,.,1.2
O=C(O)CCc1nc2ccccc2[nH]1,.,1.9
COCCN1C(=O)c2[nH]nc(-c3ccccc3O)c2C1c1ccc(OC)cc1 (configuration not stated),-3.2,-1.4
O=C(NCC1CCCO1)C1CC(c2cccc(Br)c2)=NO1 (configuration not stated),-0.26,-0.19
Oc1c(CN2CCc3ccccc3C2)cc(Cl)c2cccnc12,-0.62,0.57
C=CCSc1nnc(NC(=O)c2nn(-c3ccc(OC)cc3)ccc2=O)s1,2.2,-0.09
CC(=O)N1c2ccc(S(=O)(=O)N3CCC4(CC3)Nc3cc(F)ccc3-n3cccc34)cc2CC1C (configuration not stated),.,-0.07
CCN(CC)CCCN(C)C(=O)c1cc2c(s1)-c1ccc(Cl)cc1S(=O)(=O)C2,-0.89,0.63
C=CCOc1ccc(C2N3CC4(C)CN2CC(C)(C3)C4=O)cc1 (configuration not stated),-0.31,0.11
CC(=O)N1CCOc2ccc(S(=O)(=O)NCCC(C)C)cc21,-1.2,1.9
C=CCN(CC=C)S(=O)(=O)c1ccc(C(=O)Nc2nnc(-c3cccs3)o2)cc1,0.48,.
COc1ccccc1-n1nnc(S(=O)(=O)c2ccc(C(C)(C)C)cc2)c1C,-0.13,-0.26
O=C(Nc1nccs1)[C@H](c1ccc(F)cc1)N1Cc2ccccc2C1=O,.,0.94
O=C1CCc2cc(NS(=O)(=O)c3ccc4c(c3)CCCC4)ccc2N1,.,0.34
O=C(NC1CCCC1)C1CCCN1C(=O)OCc1ccccc1 (configuration not stated),.,1.4
O=c1[nH]c2cc3c(cc2c(=O)n1Cc1nc(-c2ccc(F)cc2)no1)OCO3,.,-0.48
Cc1ccc(-n2nc(C)c3c(C)cc(=O)n(Cc4cc(=O)n5ccccc5n4)c32)cc1,.,0.63
COc1cc2nc(SCc3cc(=O)n4ccccc4n3)n3nc(-c4ccccc4)nc3c2cc1OC,-1.2,-0.15
CCS(=O)(=O)NCC(c1ccco1)N1CCN(c2ccc(F)cc2)CC1 (configuration not stated),.,0.74

# Two compounds drawn at random from the list so far, as already listed:
SMILES,CDC25B CDK2 inh,TAR Tat displ
COCCN1C(=O)c2[nH]nc(-c3ccccc3O)c2C1c1ccc(OC)cc1 (configuration not stated),-3.2,-1.4
CCOC(=O)N1CCC(NC(=O)c2ccco2)CC1,-1.6,.

# New compounds follow:
SMILES,CDC25B CDK2 inh,TAR Tat displ
CN(C)C=Nc1ccccc1C1C=NNC1=O (configuration not stated),0.02,.
O=C(O)C1CCN(c2nc3ccccc3n3cccc23)CC1,5.8,1.8
CN1CCN(CCNC(=O)c2noc3c2CCc2sccc2-3)CC1,.,0.82
CCCS(=O)(=O)/C(C#N)=N/Nc1cc(C(F)(F)F)cc(C(F)(F)F)c1,-0.24,.
Cc1c(C(=O)Nc2ccc(F)cc2F)nnn1-c1ccc(Br)cc1,-1.5,-0.9
Fc1ccc(-n2ncc3c(NCc4ccc5c(c4)OCO5)ncnc32)cc1,.,1.2
O=C(O)c1cccc(S(=O)(=O)c2ccc3c(c2)C(=O)N(c2cccnc2)C3=O)c1,-1.4,.
Cc1cc(NC(=O)Cn2ncc3ccccc32)no1,0,0.72
CCCn1c2ccccc2c2cnn(CC(=O)N(Cc3ccco3)C3CCCCC3)c(=O)c21,.,-0.42
Cc1cc(NC(=O)CSc2ccc3nnc(-c4ccc(Cl)cc4)n3n2)no1,-4.8,.
COc1ccc(NS(=O)(=O)c2cc(Br)cc3c2N(C(=O)C2CC2)CC3)cc1OC,-1.5,-0.33
Cc1cn2c(=O)cc(COc3ccc(NC(=O)c4ccco4)cc3)nc2s1,-1.2,0.32
O=C(O)c1ccccc1-c1c2ccc3cc(O)ccc3c2oc2c1ccc1cc(=O)ccc12,-0.05,25*
CCOc1ccc(-c2cccc(NS(=O)(=O)c3c(C)n[nH]c3C)c2)nn1,.,1
